PrP UTR inh: inhibition of PrP 5' UTR reporter expression. cell-based PrP 5' UTR mRNA reporter, plate reader. inhibition, % (concentration not given with the values). 340,000 compounds, 0.35% hits;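 active = every replicate at 50% or more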;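 also: 0 = median of the neutral control wells; tested in H4 reporter cells; numbers are from one replicate; inactives centre near -14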
Sa ugtP lethal: growth inhibition of ugtP-null S. aureus, primary screen, RN4220 ugtP deletion, OD600; 16 h; some inactives read as strong as hits; growth inhibition, % (concentration not given with the values); 330,000 compounds, 0.54% hits;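 active = z-score under -3 and OD600 up to 0.15 on both plates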;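 also: plate controls were untreated wells for no effect and antibiotic for full effect; wells of about 80 µL received 100 nL stock; the first replicate is given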
Autofluor counter: counter-screen for toxin protease inhibitors: compound fluorescence. compound autofluorescence counterscreen, microsphere flow cytometry; hits give high values. fluorescence intensity (concentration not given with the values). 360,000 compounds, 3.1% hits. AID 624483;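 active = at least 3 SD above the mean of all compounds, about 16000 in these data; inconclusive = too few beads counted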;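 also: 100 nL of 1 mM stock went into each well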
BJeLR viability: MLPCN primary cell-based screen for lethality selective to Ras in HRASV12 cells. BJeLR (HRASV12) viability, CellTiter-Glo ATP luminescence, 48 h; reference of the scale not given here. AID 1554, 2009. inhibition, % (no concentration beside the values). 300,000 compounds, 0.17% hits;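 active = replicate mean above 50%; inconclusive = above 50% but judged a plate artefact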;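 also: 50 nL library stock added to about 25 µL; numbers are from one replicate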
Mtb hypoxia rep: PubChem AID 1159583. M. tuberculosis hypoxia-regulated fluorescent reporter, fluorescence. fluorescence inhibition, % (no concentration beside the values). 300,000 compounds, 0.1% hits;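 active = 35 to 45% if threefold the growth effect, above 45% if 1.5-fold the growth effect; inactive = the rest, general growth blockers included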;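 also: wells of about 50 µL received 100 nL stock; 0% = vehicle wells and 100% = reference inhibitor wells; whole bacteria with a GFP reporter of the hypoxia response; strong numbers were not always called active; many hits fall short of the cut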
RN4220 kill: growth inhibition of S. aureus RN4220, primary screen, OD600 | 16 h | inhibition, % (test concentration not listed) | 330,000 compounds, 0.33% hits;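 active = z-score of -3 or lower and OD600 up to 0.18 on both plates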;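 also: plate controls were untreated cells for no effect and reference antibiotic for full effect; stock transfer was 100 nL into about 80 µL; one replicate is shown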
Mtb hypoxia rep growth: second read-out of Mtb hypoxia rep, no call of its own (marks repeat the call); growth inhibition, %; measured here: M. tuberculosis growth (absorbance);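 0% = vehicle and 100% = reference antibiotic; read after six days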
* marks the source's active call; other numbers are inactive results; u = inconclusive; x = not tested or not shown.

Below each SMILES: PrP UTR inh, Sa ugtP lethal, Autofluor counter, BJeLR viability, Mtb hypoxia rep, Mtb hypoxia rep growth, RN4220 kill
O=C1C2CC=C(Cl)CC2C(=O)N1CN(Cc1ccco1)CN1C(=O)C2CC=C(Cl)CC2C1=O (stereo not drawn)
  0.2, -4.9, 2658, 3.0, x, x, 3.9
CCOc1cc(C=NNc2nc(-c3ccc(C)cc3)c(NC(C)=O)s2)ccc1O
  x, -0.8, x, x, x, x, 5.2
COc1cc(NS(=O)(=O)c2ccc(Cl)cc2)c(C(=O)O)cc1OC
  -9.5, x, 2426, -2.0, x, x, x
COc1ccc(CCC(=O)Nc2ccc(OC)c(S(=O)(=O)N3CCCCC3)c2)cc1OC
  -11.6, 1.9, 3975, x, -5.7, 4.4, 0.7
COCC1CCCCN1C(=O)c1ccc2oc(CCCc3ccccc3)nc2c1 (stereo not drawn)
  -18.2, 3.6, 5992, 3.7, -3.2, 9.8, -0.6
Nc1nc(SCCO)[nH]c(=O)c1NC(=O)c1ccco1
  -0.3, 0.2, 19769*, x, -3.2, 3.9, -1.4
Cc1[nH]c2ccccc2c1/C=N/Nc1nc(N2CCCCC2)nc(N2CCCCC2)n1
  4.0, x, 2469, 11.1, x, x, x
CCCN(CC(=O)Nc1c(C)cccc1CC)C(=O)SCC
  -5.1, -4.1, 2223, -2.4, 2.5, -5.1, -14.0
CCOc1ccc(NC(=O)C(c2ccccn2)N(C(=O)CCl)c2ccc(F)cc2)cc1 (stereo not drawn)
  -26.8, -3.5, 7010, 8.6, 3.1, 2.9, 15.9
CCc1cc(C(=O)N=Nc2c(O)[nH]c3ccc([N+](=O)[O-])cc23)c2ccccc2n1
  -22.0, -20.7, 1993, 3.4, 14.4, 8.2, 0.5
Cc1cc(Cn2ccnc2)c(C)cc1Cn1ccnc1
  8.0, -2.1, 11406, -5.6, -1.2, -10.3, -0.5
COc1ccc(O)c(/C=N/c2nc3ccccc3n2C)c1
  5.1, x, 4371, -8.8, x, x, x
O=C(C1CCCN(S(=O)(=O)c2cnc[nH]2)C1)N(CCc1ccccc1)Cc1ccccc1 (stereo not drawn)
  -1.1, 6.9, 5342, 16.5, x, x, 3.4
COc1ccc(-c2c(C#N)c(N)nc3c2CCCC3)cc1OC
  -10.2, 2.6, 16197*, -0.4, 9.8, 3.6, -0.8
O=C(CCCC(=O)OCC(F)(F)C(F)F)Nc1nccs1
  -21.3, 1.1, 9683, 3.2, 5.3, 4.6, 7.4
N=C1C(c2nc3ccccc3s2)=C(O)CN1NC(=O)c1c[nH]c2ccccc12
  -6.8, x, 2463, 1.9, x, x, x
O=Cc1ccc(-n2cc(C=O)c3ccccc32)cc1
  -17.7, 17.6, 3146, -2.9, 9.9, 4.6, 6.5
CC(=O)Nc1cccc(Oc2nc(-c3ccccn3)nc3ccccc23)c1
  -47.5, x, 3855, 2.4, x, x, x
O=c1oc2ccccc2cc1-c1csc(Cc2nc(-c3ccc(Cl)cc3)cs2)n1
  -23.1, 1.1, 2174, 2.5, 2.6, -3.7, -2.9
CCn1c(CNC(=O)COc2ccc(C(C)C)cc2)nnc1SCC(=O)Nc1cc(F)ccc1C
  -10.4, -15.3, 6582, 2.2, -5.4, 5.3, 12.0
NC(=O)c1cc(N2C(=O)C=CC2=O)ccc1Cl
  -17.3, 2.9, 10111, 3.4, 4.2, 3.2, 2.4
C=CCNC(=S)NNC(=O)c1cc(-c2cccnc2)nc2ccccc12
  -13.8, 2.2, 5087, 10.5, 9.6, 9.2, -4.6
O=C(CN1CCC(O)(c2ccc(F)cc2)CC1)NCc1ccc(F)cc1
  2.2, 2.9, 8854, 0.7, -6.0, -5.3, 1.9
Cc1cc2c(cc1C)N(CC(=O)N1CCCC1)C(=O)CC(c1ccccc1)=N2
  -21.6, 7.4, 2369, 0.9, x, x, -1.0
Oc1ccc(Cl)cc1C1=NNC(c2cccs2)C1 (stereo not drawn)
  -28.0, 98.8*, 4939, 2.3, 12.2, -3.1, 96.0*
CN(C)c1nc(NCc2ccccc2)nc(NN=Cc2ccccc2F)n1
  x, 8.3, x, x, 3.0, 8.1, 5.0
COc1ccc(CNC(=S)NCc2ccc(OC)cc2)cc1
  6.5, 2.0, 4775, -4.3, 1.6, 2.0, 2.1
CSc1sc(-c2ccnc(SCC(=O)C(C)(C)C)n2)c2c1C(=O)CC(C)(C)C2
  -15.4, 15.1, x, -5.5, 1.9, 2.0, 9.6
CCOC(=O)C1=C(O)/C(=C\c2ccc(CNS(=O)(=O)c3ccc(Br)cc3)o2)N=C1C
  -23.3, 2.2, 2539, -7.8, 13.4, 11.7, 1.7
CCOC(=O)C1=C(Cn2cnc3ccccc32)NC(=O)NC1c1ccc(Cl)cc1 (stereo not drawn)
  x, -11.4, 9511, -11.3, -2.8, 3.2, 0.6

Two entries from above, reformatted:
structure	PrP UTR inh	Sa ugtP lethal	Autofluor counter	BJeLR viability	Mtb hypoxia rep	Mtb hypoxia rep growth	RN4220 kill
NC(=O)c1cc(N2C(=O)C=CC2=O)ccc1Cl	-17.3	2.9	10111	3.4	4.2	3.2	2.4
C=CCNC(=S)NNC(=O)c1cc(-c2cccnc2)nc2ccccc12	-13.8	2.2	5087	10.5	9.6	9.2	-4.6

Additional compounds follow.
Below each SMILES: PrP UTR inh, Sa ugtP lethal, Autofluor counter, BJeLR viability, Mtb hypoxia rep, Mtb hypoxia rep growth, RN4220 kill
CC(C)c1ccc(NC2CCCN(C(=O)CCN3CCCC3=O)C2)cc1 (stereo not drawn)
  -11.5, 2.2, 3821, 3.8, 1.9, -7.5, 1.5
Cc1ccc(C(=O)O)cc1NC(=S)NC(=O)c1ccc(-c2ccc(Cl)cc2)o1
  -10.1, 24.1, 6042, 0.5, 7.9, 5.7, 23.9
CC1CCc2sc(C(=O)N/N=C/c3ccc([N+](=O)[O-])cc3)cc2C1 (stereo not drawn)
  -15.7, x, 2507, -5.7, x, x, x
O=C(NN=Cc1ccccc1)c1ccc(NC(=O)c2ccc(F)cc2)cc1
  x, 3.1, x, x, -7.1, -7.3, 0.5
Cc1cccc(C2C3=C(CCCC3=O)N=C3c4ccccc4C(=O)C32)c1 (stereo not drawn)
  -33.3, 1.6, u, -0.6, 9.3, 13.4, 2.7
CC1=CN2C(=N)/C(=C/c3cn(CCCOc4ccccc4C)c4ccccc34)C(=O)N=C2S1
  -26.4, -18.5, 6884, -7.8, 1.7, -0.7, 1.8
CC(C)c1cc(C(F)(F)F)n2nc(C(=O)Nc3ccc(-n4cnnn4)cc3)cc2n1
  -14.6, -1.1, 3448, 14.3, -6.2, -4.5, 4.2
O=c1[nH]cccc1-c1nc2ccccc2n1Cc1ccc(Cl)cc1
  -13.1, -2.8, 4018, -4.1, 14.8, 5.6, 0.3
Cc1cc(C)n(CCc2nc3c4ccccc4n(CC#N)c(=O)n3n2)n1
  -29.3, -1.4, 3696, 0.1, 12.0, 12.0, 1.8
COC1(OC)C=CC(=O)C=C1NC(=O)c1ccccc1OC(C)=O
  -7.6, -9.4, 3841, -12.5, 14.3, 18.8, 0.8
CC(C)C(=O)Nc1nnc(SCC(=O)Nc2ccc3c(c2)OCCO3)s1
  -2.5, 9.6, 3374, -8.3, 11.8, 10.3, 1.2
CCCCCCNC(=O)N1CC=CC(c2ccc(OC)cc2)N(Cc2ccc(F)cc2)C(=O)C1 (stereo not drawn)
  x, -0.6, x, x, 14.5, 6.7, 0.5
Cc1c(NC(=O)C2CCCNC2=O)c(=O)n(-c2ccccc2)n1C (stereo not drawn)
  -21.1, 13.3, 3112, 4.2, x, x, 3.6
S=C(NCc1ccccc1)N1CCn2cccc2C1c1cccnc1 (stereo not drawn)
  -8.4, 6.9, 4461, 6.4, -2.3, 6.8, 0.9
COc1ccc(NC(=O)c2n[nH]c(=O)c3ccccc23)cc1S(=O)(=O)N1CCCCC1
  -4.0, -3.5, 2176, 5.0, -0.1, 3.9, 3.8
Cn1c(-c2ccccc2)c(CCO)c2ccccc21
  -21.5, -0.6, 6383, -8.2, 4.5, 15.7, 4.5
COc1cccc(/C=C/C(=O)OCC(=O)NCC2CCCCC2)c1OC
  9.2, -1.2, 6415, x, -9.3, 3.4, 2.5
C/C=C/c1ccccc1OCc1ccc(C(=O)OC)o1
  -26.3, 15.0, 2663, 2.5, x, x, 8.6
COc1ccc(N2CCN(CC(=O)NC(=O)NCc3ccccc3)CC2)cc1
  9.8, 0.1, 2741, x, -8.0, 0.7, 3.7
Cc1ccc(/C(N)=N/OC(=O)c2ccc3ccccc3c2)cc1
  -33.3, -0.5, 6289, 1.3, 7.0, -1.9, -5.7
O=C(NN=Cc1ccc2c(c1)OCO2)c1ccc(COc2cccc3cccnc23)cc1
  x, -2.7, x, x, -4.1, 8.1, 12.3
COC(=O)CCc1sc(Nc2ccccc2)nc1-c1ccc(OC)cc1
  -121.9, 10.0, 2067, -12.9, 1.4, -0.8, 2.2
c1coc(-c2nc3nc4ccccc4n3nc2-c2ccco2)c1
  -15.2, -16.0, 2842, -2.7, 5.6, 4.5, 9.4
CN1CCN(C(=O)c2cc([N+](=O)[O-])ccc2Cl)CC1
  -13.5, 9.3, 4194, 9.0, -2.4, 4.0, 5.4
C=CCNC(=O)c1ccccc1NC(=O)COc1ccccc1
  -4.0, -0.5, 2591, -5.3, -5.6, 9.6, -1.2
COc1ccc(-c2cc(=O)oc3cc(OCC(C)=O)ccc23)cc1
  -13.8, 0.0, 2500, -5.3, 7.9, 4.8, 2.9
N#Cc1ccccc1CN1C(=O)S/C(=C/c2cccn2-c2ccc(C(=O)O)cc2)C1=O
  -21.0, -5.0, 2561, -5.0, x, x, 4.0
CN(C)CCN(C(=O)c1ccc(S(=O)(=O)N(C)C)cc1)c1nc2cc3c(cc2s1)OCCO3
  -34.4, 11.3, 2042, 1.9, 2.4, 7.4, 2.6
COC(=O)C1=C(N)N(c2ccccc2F)C2=C(C(=O)CC(C)(C)C2)C1c1ccc(OC)c(OC)c1 (stereo not drawn)
  -19.3, -4.5, 1973, -3.4, -8.4, 0.1, 2.4
O=C(c1ccncc1)N1N=C(c2ccc(Br)cc2)CC1c1ccccc1O (stereo not drawn)
  0.9, 5.8, 5538, -3.3, 4.5, -1.3, -2.0
CCOc1cccc(NC(=O)C2CC(=O)NC(=Nc3ccccc3)S2)c1 (stereo not drawn)
  -10.2, 4.2, 5176, -1.4, x, x, 0.0
CC(C)CC(CO)N1CCN(Cc2cccc(C#N)c2)CCC1=O (stereo not drawn)
  x, -4.9, x, x, 5.2, 5.8, 1.6
O=C(Nc1nnc(-c2ccccc2)o1)c1cccc(S(=O)(=O)N2CCOCC2)c1
  3.7, 0.3, 3491, x, 3.2, 6.1, 12.7
CC(=O)Nc1ccc(C(=O)NC2CCCC2)cc1
  0.5, 2.3, 4016, x, x, x, 3.0
CCN(CC)C(=O)Cc1c(OC)ccc2cc(Br)ccc12
  -6.8, 6.8, 4113, 1.4, 20.8, 17.3, 5.6
N/C(=N\[N+](=O)[O-])N1CCN(C(=O)OC2CCCC2)CC1
  -16.1, x, 2994, -17.3, x, x, x
CCn1nnc(-c2ccccc2NS(=O)(=O)c2ccc(S(=O)(=O)N(C)C3CCCCC3)cc2)n1
  -28.6, -1.4, 4322, -3.3, 1.2, -2.7, 10.3
Cc1ccccc1CS(=O)(=O)Cc1ccc(C(=O)NCCCN2CC(C)CC(C)C2)o1 (stereo not drawn)
  -7.9, 4.7, 5063, 5.3, 12.3, -0.8, 0.0
CCCCNc1c(-c2cccc(-c3cc(C(C)=O)cs3)c2)nc2ccc(C)cn12
  -5.5, -1.5, 4340, 13.7, -0.5, 5.8, 16.2

Profiles, quoted from the list. Values in the order: PrP UTR inh | Sa ugtP lethal | Autofluor counter | BJeLR viability | Mtb hypoxia rep | Mtb hypoxia rep growth | RN4220 kill
Results for N/C(=N\[N+](=O)[O-])N1CCN(C(=O)OC2CCCC2)CC1 : -16.1 | x | 2994 | -17.3 | x | x | x
Results for CCN(CC)C(=O)Cc1c(OC)ccc2cc(Br)ccc12 : -6.8 | 6.8 | 4113 | 1.4 | 20.8 | 17.3 | 5.6
Results for CCOc1cccc(NC(=O)C2CC(=O)NC(=Nc3ccccc3)S2)c1 (stereo not drawn) : -10.2 | 4.2 | 5176 | -1.4 | x | x | 0.0
Results for CCn1nnc(-c2ccccc2NS(=O)(=O)c2ccc(S(=O)(=O)N(C)C3CCCCC3)cc2)n1 : -28.6 | -1.4 | 4322 | -3.3 | 1.2 | -2.7 | 10.3
Results for O=C(Nc1nnc(-c2ccccc2)o1)c1cccc(S(=O)(=O)N2CCOCC2)c1 : 3.7 | 0.3 | 3491 | x | 3.2 | 6.1 | 12.7
